# CapD inh: inhibitors of Bacillus anthracis CapD enzyme; 140,000 tested, 0.23% active; AID 492967; purified CapD enzyme, fluorescence intensity read-out; stronger effect = lower value; some hits fall short of the stated cut; z-score (concentration not given with the values);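 active = z-score under -4 in either of two replicates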;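 note: stock transfer was 100 nL into about 40 µL; score is relative to mean and spread of the plate; one replicate is shown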
# AID504770: E. coli YBA685 growth inhibition, screen for V. cholerae RctB inhibitors; E. coli YBA685 rctB-dependent plasmid, OD600 growth, 3 h; stronger effect = lower value; z-score (concentration not given with the values); 130,000 tested, 0.27% active; AID 504770;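 active = z-score under -2 on both plates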;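 note: wells of about 30 µL received 100 nL stock; score is relative to mean and SD of the test wells; the first replicate is given; strong numbers were not always called active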
# Starred values were filed as active, the others as inactive; . = no result given.
# Value order – CapD inh	AID504770
(1) CC(C)(C)NC(=O)C1=CC=CN2CCS(=O)(=O)N=C12
 : .	-0.45
(2) Cc1ccn2cc(CSc3ncccn3)nc2c1
 : 0.76	-0.4
(3) Cc1cc(/C=C2\CCC(C3CCCC3)C2=O)c(C)n1-c1ccccc1 (stereo not given)
 : -2.6	0.1
(4) NC(Cc1ccccc1F)C(=O)O (stereo not given)
 : 1.1	-0.55
(5) O=C(NCC1CCCO1)c1ccc(-n2cc(-c3ccc(Cl)cc3)cn2)cc1 (stereo not given)
 : 0.92	.
(6) Cc1ccc(C(=O)c2cnc3cc4c(cc3c2N2CCCCC2)OCO4)cc1
 : .	-0.85
(7) O=C(Nc1cc(C(F)(F)F)ccc1N1CCc2ccccc2C1)c1ccccc1
 : 4.5	2
(8) Cc1cc(N2CC(C)CC(C)C2)n2c(nc3ccccc32)c1C#N (stereo not given)
 : 0.75	0.15
(9) O=[N+]([O-])c1ccc2oc(C(O)c3ccc(F)cc3)cc2c1 (stereo not given)
 : -0.35	.
(10) O=C(/C=c1/[nH]c(=O)/c(=C/c2ccccc2C(F)(F)F)s1)c1ccco1
 : .	-0.35
(11) O=C(NCc1ccccc1)C1CCN(S(=O)(=O)c2cccs2)CC1
 : -0.1	-1.2
(12) O=C(NC(=S)Nc1cccc(O)c1)c1ccccc1
 : .	-0.55
(13) COC(=O)C1CCN(C(=O)COc2ccccc2)CC1
 : 0.15	-1.1
(14) CCOC(=O)c1cc(-c2ccc(F)cc2)n(CC(=O)N2CCc3ccccc3C2)c1C
 : -0.47	-0.7
(15) CCOC(=O)C1=NN(C(=O)CCc2ccccc2)C(O)(c2ccc(Cl)cc2)C1 (stereo not given)
 : -1.4	.

# Continued.
# Value order – CapD inh	AID504770
(16) COC(=O)c1ccc2occ(C(=O)c3ccc(F)cc3)c2c1
 : -0.27	0.8
(17) COc1ccc(OC)c(NC(=O)CSc2nc3n[nH]c(C)c3c(=N)n2-c2cccc(Cl)c2C)c1
 : 0.045	.
(18) Nc1nnc(SCC(O)CO)s1 (stereo not given)
 : .	-0.95
(19) O=C(Nc1ccc(Cl)cc1)OC1CN2CCC1CC2 (stereo not given)
 : 0.01	0.9
(20) COc1ccccc1-c1c(C#N)c(C)nc(C)c1C#N
 : 6.2	0.45
(21) COc1ccccc1OCC(=O)NCCO
 : -0.18	0.75
(22) NC(=O)CN1CCCCCC1=O
 : -0.11	-0.9
(23) CCn1c(=O)cc(OCC(=O)NC2CCCC2)c2ccccc21
 : 0.1	-0.1
(24) C=CCSc1nc2c(c(=O)n(C)c(=O)n2C)n1Cc1cccc(C)c1
 : -0.69	-2.5
(25) CCN(CC)S(=O)(=O)c1ccc(/C=C/C(=O)OCC(=O)Nc2cccnc2Cl)cc1
 : .	0.5
(26) CC(=O)Nc1ccc(NC(=O)CSc2ccccc2C)cc1
 : -0.05	-0.7
(27) O=c1c2ccccc2nc2n1C(CSc1ccc(Cl)cc1Cl)CS2 (stereo not given)
 : -0.59	.
(28) O=C(O)CCOc1ccc(F)cc1F
 : -0.46	-0.7
(29) Cc1cc(C)n(-c2nc(N3CCOCC3)nc(N3CCOCC3)n2)n1
 : 0.41	.
(30) O=C(CN1CCCC1)N1CCN(C(=O)c2ccccc2)C1
 : .	0.45

# Continuation:
# Value order – CapD inh	AID504770
(31) CNC(=O)NC(=O)CSc1ncc(C(F)(F)F)cc1Cl
 : .	-0.05
(32) Cc1nc2ccc(-c3nc4ccc(NC(=O)c5cccs5)cc4[nH]3)cc2[nH]1
 : -0.7	0.6
(33) Cc1cc(C)nc(NC(c2ccco2)c2ccc3cccnc3c2O)n1 (stereo not given)
 : -0.15	.
(34) O=C(/C=C/c1ccco1)OC1CCOC1=O (stereo not given)
 : .	0.75
(35) CCOc1ccc(C2(O)CN(c3cccc(C)c3C)C3=[N+]2CCCS3)cc1 (stereo not given)
 : 0.64	.
(36) CC(Sc1ccc(Cl)cc1)C(=O)NNC(=O)OCC#Cc1ccccc1 (stereo not given)
 : 0.36	.
(37) CCN1CCN(Cc2c(O)ccc3ccccc23)CC1
 : .	-1.3
(38) CC(=O)Nc1nc2ccccc2n1Cc1ccccc1Cl
 : 0.2	.
(39) COc1cc2c(cc1OC)C1=C(C#N)CCC(=O)N1CC2
 : -0.72	-0.35
(40) Cc1ccc(C)c2[nH]c(=O)c(C3NC(=O)c4ccccc4N3)cc12 (stereo not given)
 : .	-0.15
(41) CN(C(=O)Cn1ncc2c(=O)oc3ccccc3c21)c1ccccc1
 : 0.68	0.15
(42) CCOC(=O)c1ccccc1Nc1c(C(=O)OCC)cnc2ccc(OCC)cc12
 : -0.21	.
(43) O=C1Nc2ccccc2SC1C(C(=O)O)c1ccccc1 (stereo not given)
 : -0.32	-0.85
(44) CC1(c2ccccc2)NC(=O)N(CC(O)c2ccccc2)C1=O (stereo not given)
 : .	1.8
(45) Cc1ccc(-n2c(SCC(=O)c3cccc([N+](=O)[O-])c3)nc3[nH]ncc3c2=O)cc1C
 : -0.32	.

# New compounds follow:
# Value order – CapD inh	AID504770
(46) CCC(C)NC(=O)Cn1c(=O)/c(=C\c2ccc(F)cc2)s/c1=C\C(=O)c1ccco1 (stereo not given)
 : .	-0.15
(47) O=C(NC1=NCCS1)c1ccc2c(c1)C(=O)N(Cc1ccncc1)C2=O
 : .	-0.2
(48) NS(=O)(=O)c1ccc(CNC(=O)OCCc2cccc(Cl)c2)cc1
 : -0.14	.
(49) O=C(NC(=O)c1csnn1)Nc1ccc(F)c(Cl)c1
 : -0.27	-0.2
(50) Cc1cc(C(=O)CN(C)C2CCN(C)CC2)c(C)n1-c1c(C)n(C)n(-c2ccccc2)c1=O
 : .	-0.35
(51) CC(Sc1ccccc1)C(=O)O (stereo not given)
 : .	-0.05
(52) COC(=O)c1c(C)nc(C)c(C(=O)OC)c1-c1ccsc1
 : -0.27	.
(53) O=C(CCNc1ccccc1)c1cccs1
 : 0.045	0.05
(54) c1ccc2c(CSc3nnc(-c4ccc5c(c4)OCO5)o3)cccc2c1
 : .	0.05
(55) CC(=O)N1CCC(N(C(=O)CSCCNC(=O)c2ccccc2)C2CC2)CC1
 : -0.36	.
(56) Cc1noc(C)c1/C=N/NC(=S)Nc1ccc(SC(F)F)cc1
 : .	0.6
(57) CCOC(=O)c1cnn(-c2nc(-n3ncc(C(=O)OCC)c3N)c3c4c(sc3n2)COC(C)(C)C4)c1N
 : -0.24	-0.95
(58) O=C1c2ccccc2C(=O)N1Cc1nc2ccccc2c(=O)n1CCCn1ccnc1
 : -0.01	0
(59) COc1ccc2cccc(OC)c2n1
 : 46	-0.1
(60) Cc1cc(=O)n2c([nH]c3ccccc32)c1C(=O)O
 : .	-0.55

# Other structures.
# Value order – CapD inh	AID504770
(61) CN(C)c1cccc(C(=O)OCC(=O)N(C)c2ccccc2)c1
 : 0.06	1.4
(62) Cc1ccc(-c2ccc(=O)n(CC(=O)NCc3ccco3)n2)cc1
 : 2.8	0.3
(63) CCOc1ccc(C2C(N3C(=O)c4ccccc4C3=O)C(=O)N2c2ccc(C)c(C)c2)cc1 (stereo not given)
 : -0.025	.
(64) CCOC(=O)C1=C(N)n2c(s/c(=C\c3ccc(Br)cc3)c2=O)=C(C#N)C1c1ccc(Br)cc1 (stereo not given)
 : 0.05	.
(65) CC(C)(Oc1ccc(Cl)cc1)C(=O)OCC(=O)N1CCc2ccccc21
 : 0.53	-0.15
(66) CC(C)(C)c1cc2nc(C(F)(F)F)cc(SCCO)n2n1
 : 20	-1
(67) Clc1ccc(N2CCCCC2)nn1
 : -0.52	-1.1
(68) COC(=O)c1cc(OC(=O)c2ccc(OC)c(OC)c2)n(C)n1
 : .	-0.6
(69) CCOc1ccc(C2C(N3C(=O)c4ccccc4C3=O)C(=O)N2c2ccc(Cl)cc2)cc1 (stereo not given)
 : -0.37	.
(70) Cc1cc2c(cc1S(=O)(=O)NC1CCCC(C)C1C)OCC(=O)N2 (stereo not given)
 : -0.67	1.4
(71) CC(=O)N1N=C(c2ccccc2)CC1c1ccccc1 (stereo not given)
 : .	-0.05
(72) CC(C)C(NS(=O)(=O)c1ccccc1)C(=O)N1CCCC1 (stereo not given)
 : -0.16	-0.7
(73) COc1ccc(CNC(=O)CSC(=S)N2CCCC2)cc1
 : .	-0.35
(74) O=c1ccc(-c2ccco2)nn1Cc1ccc(Cl)c(Cl)c1
 : .	0.3
(75) FC(F)(F)c1ccc(N2CCN(c3ccccc3)CC2)nc1
 : 0.11	-1.1

# Going on with the list:
# Value order – CapD inh	AID504770
(76) Cc1nn(-c2ncc(C(F)(F)F)cc2Cl)c(C)c1CS(=O)(=O)c1ccccc1
 : -0.28	0.4
(77) CCC(=O)c1ccc(N2CCCC2)c(F)c1
 : .	0.8
(78) O=C(Nc1cc(-c2cccs2)nn1-c1ccc(F)cc1)C1CCC1
 : 1.4	-0.8
(79) C=CC1Oc2ccc(Br)cc2NC12C=C(C(C)(C)C)C(=O)C(C(C)(C)C)=C2 (stereo not given)
 : -0.25	.
(80) CCn1cc(CCCC(=O)N2CCc3ccccc32)c2ccccc21
 : -0.56	-0.05
(81) Cc1cc2nnc(SCC(=O)NCc3ccco3)n2c2ccccc12
 : 0.025	0.9
(82) CC1(C)CC(=O)C2=C(C1)c1c(ccc3ccccc13)NC2c1cc([N+](=O)[O-])ccc1N1CCOCC1 (stereo not given)
 : -0.96	.
(83) Cc1cc(C)c(NC(=O)c2cc(=O)c3ccccc3o2)c(C)c1
 : 0.42	-0.25
(84) Cc1nc2c(Br)cc(Br)cc2c(=O)o1
 : 0.69	.
(85) CCN(CC)Cc1cc2c(-c3ccccc3)cc(=O)oc2c(C)c1O
 : -0.89	-0.5
(86) Cc1cc(-c2onc(C)c2COC(=O)N2CCC(C(=O)c3ccc(F)cc3)CC2)no1
 : 0.2	.
(87) CN(C(=O)C1CC1)c1ccccc1C(=O)O
 : .	-1.5
(88) O=C(O)CC1N=Cc2ccccc21 (stereo not given)
 : 1.2	-0.6
(89) Cc1nc2ccccc2nc1C
 : -0.39	-1
(90) COc1cccc(NC(=O)N2CCC3(CC2)Oc2ccccc2C(=O)N3Cc2ccccc2F)c1
 : 0.12	-0.1

# (listing goes on)
nr | compound | CapD inh | AID504770
91 | O=C(Nc1ccc(N2CCCC2)c(Cl)c1)c1ccc2c(c1)OCCO2 | -0.68 | .
92 | COC(=O)CNC(=O)c1cccnc1Sc1cc(OC)ccc1OC | 0.52 | -0.85
93 | CN=C1SC(CC(=O)Nc2ccc(OC)c(OC)c2)C(=O)N1/N=C(\C)c1ccc(OCC#N)cc1 (stereo not given) | . | -0.55
94 | Cc1nn(Cc2ccccc2)c2sc(C(=O)NCc3cccnc3)cc12 | . | -0.1
95 | CC12CCC(C(=O)N(CC(O)Cn3c4ccc(Cl)cc4c4cc(Cl)ccc43)C1=O)C2(C)C (stereo not given) | 1.3 | .
96 | CCN(CC(=O)Nc1cc(C)on1)Cc1nc2ccccc2c(=O)[nH]1 | . | -0.85
97 | O=c1[nH]c(-c2ccc(Cl)cc2)nc(=S)[nH]1 | -0.82 | .
98 | CC1CN(c2nc3ccccc3nc2SCC(=O)Nc2ccccc2)CC(C)O1 (stereo not given) | 44 | 0.2
99 | Cc1nc(C(F)(F)F)ccc1C(=O)Oc1ccccc1N1CCCCC1 | 0.85 | -0.15
100 | N#Cc1ccccc1NC(=O)CSC1=NCCS1 | . | -0.2
101 | N#CC1=C(N)NC(=S)C(C(N)=O)C1c1ccccc1 (stereo not given) | -4.5* | -1.1
102 | COCc1nnc(NC(=O)c2cccc(NC(=O)C(C)C)c2)s1 | 0.035 | 0.5
103 | O=C(O)C1C2C=CC(C2)C1C(=O)NCc1ccccc1F (stereo not given) | 0.72 | 0.5
104 | COc1ccccc1-c1oc2cc(Cl)ccc2c(=O)c1O | 8.3 | -0.35
105 | CCC1CCCCN1C(=O)c1ccc(N2CC3CC(C2)c2cccc(=O)n2C3)c(NS(=O)(=O)c2ccc(NC(C)=O)cc2)c1 (stereo not given) | 0.2 | .

# Next section
nr | compound | CapD inh | AID504770
106 | O=C(CCCC(=O)OC1CCCC1)OC1CCCC1 | 0.28 | 0.75
107 | CCOC(=O)c1sc2ncnc(NCc3ccccn3)c2c1C | 37 | .
108 | NC(=O)C1CCN(C(=O)c2ccc3c(c2)nc(SCc2cccc([N+](=O)[O-])c2)n2c4ccccc4nc32)CC1 | 0.45 | .
109 | CCOc1cccc(-c2cc(C(=O)Nc3ccc4c(c3)OCO4)c3ccccc3n2)c1 | -0.19 | .
110 | COCC(C)NC(N)=S (stereo not given) | . | 1.1
111 | FC(F)(F)c1cccc(Cn2nnnc2-c2cc(Cl)cc(Cl)c2)c1 | -0.19 | .
112 | CC1(C)CC(=O)C(C2=NC3(CCCCC3)Cc3ccccc32)=C(O)C1 | -0.85 | .
113 | NC(=O)c1c(F)c(F)c(N)c(F)c1F | -0.04 | 0.75
114 | Cn1c(SCC(=O)Nc2ccccc2)nc2ccccc2c1=O | . | -1
115 | O=C1c2ccccc2-c2n[nH]c3cccc1c23 | -0.93 | -0.6
116 | COC(=O)c1ccc(N2N=C(C)/C(=C/c3ccc(OCc4ccc(Cl)cc4)c(OC)c3)C2=O)cc1 | 0.015 | .
117 | COC(=O)c1ccc(CNC(=O)COc2ccc(Cl)cc2Cl)cc1 | -0.85 | -0.5
118 | Fc1cccc2c1CNC(=S)N2 | 0.23 | -1.3
119 | CCn1c(C(=O)N2CCCC(C(=O)NC3CCCC3)C2)cc2sccc21 (stereo not given) | -0.21 | -1.4
120 | CCCc1nnc(SCC(=O)NC2CC2)n1CC | . | -0.55
121 | FC(F)(F)c1cc(-n2cccc2)cc(C(F)(F)F)c1 | -0.6 | .
122 | COc1ccccc1CNC(=O)c1ccc(CSc2nc3ccncc3[nH]2)cc1 | 0.52 | -0.3

# Bioassay records as filed in PubChem.
